Compound activity from PubChem BioAssay.
PINK1 expr mod: modulators of PINK1 expression; PINK1 immunofluorescence, high-content cytometry, 24 h; Potency, µM (titrated, usually from 76.6 µM), for the others: top-dose activation (PINK1 increase), most hits filed as activators; hit rate 0.2% among 410,000; AID 624263; active = well fitted activation curve with a large enough effect; inconclusive = small, poorly fitted or top-dose-only effect; inactive = flat fitted curve, though single readings scatter; cell line not stated here;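 note: potency is the fitted concentration of half-maximal effect; % of control where 0% means no effect; nearly all actives have a fitted effect of over 65% in size; a mitochondrial uncoupler was the plate control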
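Decision-based qHTS: stable cells, 24 h exposure to five compound concentrations, CCCP as control. Fixed cells stained for PINK1 plus nuclear, mitochondrial and cell markers, cytometer read.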
Six1-Eya2 inh: Six1/Eya2 interaction inhibition; activity change, % (concentration not given with the values); AID 651725; Q15475+O00167; AlphaScreen GST-Six1/His-Eya2 binding, biochemical; stronger effect = lower value; control for the full effect not named in the record; hit rate 0.56% among 360,000; in the data active = activity change below about -65%; inconclusive = about -30% to -65%; inactive = above about -30%; note: % is set by controls: 0 for no effect and ±100 for the full control effect
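Homogeneous AlphaScreen proximity assay pairing GST-Six1 with His-tagged Eya2 (added as 5X mix: 250 nM and 500 nM) in 50 mM Tris pH 8.0, 300 mM NaCl, 1 mM TCEP. Glutathione donor and nickel acceptor beads; 1 h, 37 °C, dark.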
D2 potentiator: human D2 receptor positive allosteric modulation | hit rate 0.23% among 360,000 | AID 624464 | DiscoveRx D2 beta-arrestin cells, luminescence, 90 min; 100% = 57 uM dopamine signal | potentiation, % (concentration not given with the values); active = potentiation of 50% or more; inconclusive = 30% to 50%; inactive = 30% or less;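 note: compound concentration not given in the record; tested on top of an EC20 dose of dopamine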
Target sequence (P14416 whole entry, looked up): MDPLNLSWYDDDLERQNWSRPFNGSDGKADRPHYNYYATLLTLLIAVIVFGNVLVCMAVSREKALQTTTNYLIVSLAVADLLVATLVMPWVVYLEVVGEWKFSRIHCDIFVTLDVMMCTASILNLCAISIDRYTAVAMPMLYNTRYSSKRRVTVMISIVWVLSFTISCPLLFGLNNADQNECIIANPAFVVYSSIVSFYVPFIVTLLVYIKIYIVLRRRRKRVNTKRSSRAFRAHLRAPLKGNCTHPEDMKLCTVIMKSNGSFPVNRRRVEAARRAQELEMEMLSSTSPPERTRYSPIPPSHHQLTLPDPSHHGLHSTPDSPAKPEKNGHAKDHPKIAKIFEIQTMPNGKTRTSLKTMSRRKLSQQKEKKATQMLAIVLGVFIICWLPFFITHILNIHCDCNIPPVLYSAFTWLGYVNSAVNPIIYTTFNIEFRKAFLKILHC
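PathHunter beta-arrestin assay in DiscoveRx D2 cells. Compounds were added with an EC20 of dopamine (50 nM final) for 90 min at 37 deg C. Luminescence was read 1 h after detection reagent, with 57 uM dopamine as the EC100 control.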
CtBP-E1A blk: blocks the CtBP interaction with E1A; AlphaScreen GST-E1A/His-CtBP binding, 1536-well; stronger effect = lower value; control for the full effect not named in the record; activity change, % (concentration not given with the values); hit rate 0.49% among 340,000; in the data active means activity change below about -65%; inconclusive means about -30% to -65%; inactive means above about -30%; note: % is set by controls: 0 for no effect and ±100 for the full control effect
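AlphaScreen with 125 nM GST-E1A and 125 nM His-CtBP (5X stocks) in Tris pH 8.0, 300 mM NaCl, BSA, Tween 20, TCEP. Compounds preincubated 2 h at 37 deg C, then glutathione donor/nickel acceptor beads added for 1 h at 37 deg C in dark.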
D2 agonist: agonists of human D2 dopamine receptor (beta-arrestin); DiscoveRx PathHunter D2 beta-arrestin, luminescence, 90 min; 100% = 57 uM dopamine signal; activation, % (test concentration not listed); P14416; hit rate 0.084% among 360,000; in the data active = activation above about 40%; inconclusive = about 15% to 40%; inactive = below about 15%; note: compound concentration not given in the record; the text of the record calls up to 30% inactive
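DiscoveRx PathHunter D2 beta-arrestin cells (2,100/well) attached overnight, then compound-stimulated 90 min at 37 C in HBSS/10 mM HEPES/0.1% Tween-20 buffer; beta-galactosidase complementation read by luminescence after 1 h at ambient temperature. Dopamine 57 uM final (EC100) as control.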
TRPML1 ag: activates the human TRPML1 channel. Q9GZU1. TRPML1-expressing cells, Ca2+ dye fluorescence, FDSS; host cell line not named in the record; reference of the full effect not given here. activation, % (no concentration beside the values). hit rate 0.12% among 410,000. AID 624414; in the data active = activation above about 50%; inconclusive = about 30% to 50%; inactive = below about 30%; note: 0% is about no effect; the text of the record puts the active cut at 80%
Target sequence (Q9GZU1 whole entry, looked up): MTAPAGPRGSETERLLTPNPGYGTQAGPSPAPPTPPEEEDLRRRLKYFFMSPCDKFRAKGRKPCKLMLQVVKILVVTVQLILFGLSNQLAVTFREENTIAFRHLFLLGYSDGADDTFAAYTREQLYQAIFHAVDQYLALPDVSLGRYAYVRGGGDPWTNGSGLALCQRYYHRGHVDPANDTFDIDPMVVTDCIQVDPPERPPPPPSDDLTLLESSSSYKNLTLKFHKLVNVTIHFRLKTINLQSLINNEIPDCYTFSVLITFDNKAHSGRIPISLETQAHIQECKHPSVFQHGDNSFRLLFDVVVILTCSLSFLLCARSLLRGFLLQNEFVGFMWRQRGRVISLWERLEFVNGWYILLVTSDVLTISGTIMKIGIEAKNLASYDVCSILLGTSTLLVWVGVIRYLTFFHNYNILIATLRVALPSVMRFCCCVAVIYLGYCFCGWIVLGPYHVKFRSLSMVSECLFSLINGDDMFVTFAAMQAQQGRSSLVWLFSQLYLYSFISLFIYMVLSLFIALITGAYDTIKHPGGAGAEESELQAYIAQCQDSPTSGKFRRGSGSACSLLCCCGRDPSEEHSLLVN
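Tet-induced TRPML1-DL cells, 1,500 per well, cultured overnight, were loaded with a no-wash Ca2+ dye for 45–90 min. Calcium fluorescence was recorded on the FDSS for 110 s after compound addition, before the EC80 agonist (4 uM 54-4) was added.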
The depositor's hits bear a star; ? = inconclusive; . = no result given; & = joins results of further samples; [ ] = remark or other dose.

Order of results – D2 potentiator, PINK1 expr mod, TRPML1 ag, Six1-Eya2 inh, CtBP-E1A blk, D2 agonist
1) COc1ccc2c(c1)CCc1sc(NC(=O)c3ccc(C)cc3)nc1-2
 : -10.4, 4.5%, 1.8, 7.6, 10.1, -3.2
2) CC(C)(C)C(=O)Nc1nnc(SCC(=O)NC2CCCC2)s1
 : 0.2, 1.4%, -0.1, 2.3, -0.4, -3.0
3) Cc1cc(=O)n2c3ccccc3n(CC(O)CN3CCC(C)CC3)c2c1C#N (stereo unspecified)
 : -27.6, 3.1%, 0.2, 14.1, 8.2, -4.4
4) CCOC(=O)n1c(=O)oc2ccccc21
 : -11.1, 3.2%[38.3 µM], 1.1, -3.0, 0.5, -1.3
5) COc1cccc(-c2cnc3c(NC=O)cc(-c4ccoc4)cn23)c1
 : 0.1, 3.6%, -1.1, -20.5, -16.5, 11.1
6) COc1ccccc1N1CCN(C(c2cccs2)C(C)NC(=O)C(=O)N2CCOCC2)CC1 (stereo unspecified)
 : -20.9, -0.4%, -0.1, -0.1, -3.5, -3.8
7) O=C1CCC(C(=O)OC(C(=O)c2c[nH]c3ccccc23)c2ccccc2)=NN1 (stereo unspecified)
 : -5.6, -1.4%, 0.7, 4.3, 4.2, -4.7
8) CCC1(C)Cc2c(sc3c2c(=O)n(C)c2nnc(SCc4ccccc4)n32)CO1 (stereo unspecified)
 : 0.5, 10.8%[38.3 µM], -0.1, -4.0, -9.8, 1.0
9) FC(F)(F)c1cnc(-c2cnc(-c3cccnc3)nc2)c(Cl)c1
 : -1.9, 1.4%, -0.1, -1.1, -0.1, -4.1
10) O=C(NC1CC2CCC1C2)c1ccco1 (stereo unspecified)
 : -4.3, 5.5%, 0.4, -13.1, -1.7, 0.7
11) Cn1c(/C(C#N)=C(\O)c2ccc(Cl)s2)nc2ccccc21
 : -3.0, 6.6%, 4.0, 3.1, ., 3.9
12) C=CCC1(CC=C)CCCN1C(=O)C1CCC(=O)N(CCc2ccc(OC)cc2)C1 (stereo unspecified)
 : -5.6, 3.6%, 4.4, 4.5, ., 0.1
13) CCOC(=O)N1CCC(c2nc3ccccc3[nH]2)CC1
 : -4.2, -1.9%, -0.9, 3.7, -2.9, -1.0
14) CCc1nnc(NS(=O)(=O)c2ccc(N/C=C/C(=O)c3ccc(C)cc3)cc2)s1
 : 2.2, -1.2%, -0.4, -17.9, -12.0, -0.2
15) O=C(COC(=O)CC(c1ccccc1)c1ccccc1)NCc1ccccc1
 : 0.3, 0.7%, 3.8, 4.6, -14.6, -0.9
16) CCc1nnc(NS(=O)(=O)c2ccccc2)s1
 : -0.3, -0.7%, -0.2, 6.6, 5.7, 1.0
17) CCc1nnc(NC(=O)CSc2nc3cc(OC)ccc3cc2C)s1
 : -3.9, 4.0%, 2.8, 8.5, 19.0, 0.7
18) CCCc1cnc(N2CCN(C(=O)c3ccccc3)CC2)nc1
 : 3.9, -0.3%, -0.6, 5.9, 3.6, -1.5
19) N#Cc1cccc2c1-c1ccccc1/C2=N/NC(N)=O
 : -4.1, -1.2%, ., ?, -27.1, -6.2
20) O=C(c1cccc(Cl)c1)N1CCCC(C(=O)N2CCCCCC2)C1 (stereo unspecified)
 : -5.7, ., -0.6, 1.3, 0.8, -1.9
21) COc1ccc(NC(=O)C2(C)CCCN(C(C)C)C2)cc1F (stereo unspecified)
 : 4.4, 0.7%, -0.1, 0.1, -5.4, -1.4
22) O=[N+]([O-])c1ccccc1CS(=O)(=O)c1ccccc1
 : -35.5, 0.0%, -0.2, -0.4, -4.5, -5.1
23) CN(C)c1ccc(CN(C(=O)c2ccc(Cl)c([N+](=O)[O-])c2)C2CCS(=O)(=O)C2)cc1 (stereo unspecified)
 : -8.0, -3.6%, -0.4, -10.4, -12.9, -6.3
24) O=C(/C=C/c1cccs1)NC(=S)Nc1ccc(S(=O)(=O)Nc2ccccc2C(F)(F)F)cc1
 : -10.5, -0.1%, 1.6, 4.8, ., 3.8
25) Cc1cc(N2CCc3ccccc32)n2ncnc2n1
 : -6.6, -1.3%, 0.0, -3.2, -2.1, -4.3
26) CCOC(=O)C1=C(C)OC(N)=C(C#N)C1c1cc(Cl)c(OCC(N)=O)c(OC)c1 (stereo unspecified)
 : -13.1, 0.6%, 1.2, -6.5, -6.1, -2.6
27) C[C@H](CO)N1C[C@H](C)[C@@H](CN(C)Cc2ccc(Oc3ccccc3)cc2)Oc2c(NC(=O)c3ccncc3)cccc2C1=O
 : 3.6, 5.3%, -0.6, -17.5, -22.7, 0.4
28) CC1(C(=O)NS(=O)(=O)c2cccc(F)c2)CCN1C(=O)CC1CCCCC1 (stereo unspecified)
 : -2.1, 0.6%, 0.2, 3.3, 7.3, -2.8
29) CC(C)(C)OC(=O)N[C@@H](Cc1ccccc1)c1nnc(SCC(=O)O)o1
 : -6.1, -0.1%, 0.2, 4.4, 4.3, 0.2
30) Cc1cc(NC(=O)CCC(=O)N(CC(=O)NC2CCCC2)Cc2cccs2)no1
 : -6.7, 3.1%, 1.8, 1.7, 9.8, 2.4
31) CC(=O)Nc1ccc(Nc2nc(C)nc3c2nnn3Cc2ccccc2Cl)cc1
 : 0.1, 7.0%, -0.6, -4.4, -9.0, -2.9
32) O=C(CCCC(=O)N1CCN(c2ccccc2F)CC1)c1ccccc1
 : -4.8, 1.5%, 1.0, 9.3, -0.3, -4.3
33) CC(=O)Nc1ccc(Nc2nc(C(F)(F)F)nc3c2nnn3Cc2ccccc2Cl)cc1
 : 0.0, 6.6%, 0.7, 4.5, 0.6, ?
34) NS(=O)(=O)c1ccc(NC(=O)COC(=O)c2cc3ccccc3oc2=O)cc1
 : -8.8, 1.6%, 0.6, -3.6, 0.7, -1.2
35) O=C(c1cccs1)N(c1ccc(F)cc1)C1C=CS(=O)(=O)C1 (stereo unspecified)
 : -11.0, 0.3%, -0.6, 11.6, 1.4, -6.5
36) COc1ccc(C)cc1NC(=O)CNc1ccc(C(C)=O)cc1
 : -22.5, 8.2%, 0.8, 0.3, 8.6, -2.7
37) Cc1cccnc1CCNC(=O)CC1C(=O)NCCN1CC1CCCCC1 (stereo unspecified)
 : -6.9, -0.3%, 1.9, 2.0, -19.0, -1.1
38) O=C(CSc1nnc2ccc(-c3ccc(F)cc3)nn12)N1CCCC1
 : 1.6, -0.2%, ., 1.9, 7.6, -4.3
39) CC/C(=C/c1ccccc1)c1cccc2[nH]c3c(OC)cccc3c12
 : 27.3, ?, -1.2, -3.4, 4.3, 0.6
40) CC1(C)CC(=O)C=C(C#CC2(O)CCCCC2)C1
 : 1.6, 6.8%, -0.3, 11.6, 1.5, -5.6

Pulled one by one from the list above, two records:
Order of results – D2 potentiator, PINK1 expr mod, TRPML1 ag, Six1-Eya2 inh, CtBP-E1A blk, D2 agonist
36) COc1ccc(C)cc1NC(=O)CNc1ccc(C(C)=O)cc1
 : -22.5, 8.2%, 0.8, 0.3, 8.6, -2.7
35) O=C(c1cccs1)N(c1ccc(F)cc1)C1C=CS(=O)(=O)C1 (stereo unspecified)
 : -11.0, 0.3%, -0.6, 11.6, 1.4, -6.5

Going on with the list.
Order of results – D2 potentiator, PINK1 expr mod, TRPML1 ag, Six1-Eya2 inh, CtBP-E1A blk, D2 agonist
41) COc1cc(C(=O)N2CCSCC2)ccc1OC1CCN(C(C)=O)CC1
 : 8.3, 1.3%, -0.5, 13.3, 7.3, 2.4
42) c1ccc(-c2ccccc2OCCN2CCCC2)cc1
 : -25.3, 1.4%, 0.2, -4.5, -5.1, 4.9
43) Cn1c(SCC(=O)Nc2nnc(-c3ccccc3)o2)nnc1C1CC1
 : -3.4, -1.6%, -0.5, ?, -25.6, -3.0
44) Cc1cc(C)nc(SCc2nnc(SCC(=O)OC3CCCCC3)o2)n1
 : -14.2, -0.7%, 2.1, -1.9, 8.3, -3.4
45) CCOc1cc(/C=C2/N=C(c3ccc4c(c3)OCO4)OC2=O)ccc1OC(C)=O
 : -9.2, 0.8%, -0.9, -6.2, ., -1.3
46) CCOc1ccccc1C1NC(=O)NC(C)=C1C(=O)OC1CCCC1C (stereo unspecified)
 : -3.1, -0.3%, 0.0, 18.4, 0.0, -0.9
47) CCn1ncc(Br)c1C(=O)Nc1ccccc1OC
 : 9.7, 5.4%, 1.5, 19.5, 14.7, 5.8
48) CCOC(=O)c1cc(S(=O)(=O)NCc2ccco2)cn1C
 : -5.9, -1.7%, -0.4, 7.9, ., -2.0
49) CCc1ccccc1NC(=O)NNC(=O)CCc1ccccc1
 : -13.1, -0.3%, -0.5, 4.4, 0.0, -3.5
50) CCCc1cc(=O)oc2cc(OCC(=O)NCCCn3ccnc3)c(Cl)cc12
 : 4.6, -1.0%, -0.7, -4.3, -7.6, 2.0
51) COc1ccc(/C=N/NC(=O)c2ccc(Cl)c(S(N)(=O)=O)c2)cc1OCC(N)=O
 : -0.4, 1.7%, 0.8, -21.4, -26.6, 3.2
52) CN1CCCN(C(=O)c2ccc(Cl)cc2)CC1
 : -8.3, -0.6%, -0.1, 1.3, 14.3, -0.8
53) C/C=C/c1ccc(OCC(O)CN2CCCCCCC2)c(OC)c1 (stereo unspecified)
 : -7.3, 1.3%, -1.3, 3.6, -4.2, -6.8
54) O=C(Nc1ccc(F)c(F)c1)c1ccc(F)c(S(=O)(=O)N2CCC3(CC2)OCCO3)c1
 : -8.8, -0.3%&1.2%, 0.1&0.9, -2.3, -0.9, 6.8
55) CC(=O)Nc1ccc(CN2CCC2(C)C(=O)NC2CCN(Cc3ccccc3)CC2)cc1 (stereo unspecified)
 : -11.5, 0.2%, 1.2, -3.8, 6.8, -3.5
56) CC1CCN(C(=O)Cn2nnc(-c3ccc(N)cc3)n2)CC1
 : -3.5, 0.1%, 0.5, -4.0, -11.4, -4.3
57) O=S(=O)(c1ccc(F)cc1)N1CCN(CC(O)COCc2cccs2)CC1 (stereo unspecified)
 : 23.9, -2.0%, 0.3, -0.8, -0.8, 0.4
58) COc1ccc(OCC(O)CN2CCN(c3ccc(OC)cc3)CC2)cc1 (stereo unspecified)
 : -39.2, 3.6%, 0.3, -6.9, -4.3, -4.7
59) O=C(C1CCC1)N1CCN(S(=O)(=O)c2ccc([N+](=O)[O-])cc2)CC1
 : 1.1, 0.0%, -0.3, -0.4, 6.5, 4.1
60) O=C1CSC(c2ccccc2)N1c1cccnc1 (stereo unspecified)
 : -24.1, -0.9%, 0.3, 3.6, 2.3, 0.6
61) O=C1CCC(=O)N1c1ccc(S(=O)(=O)N2CCCC2)cc1
 : -3.1, -0.6%, 0.6, 23.0, 0.0, -2.0
62) O=C(C1=C[C@@H](c2ccc(C(F)(F)F)cc2)C[C@@H](OCCCCO)O1)N1CCCCCCC1
 : -47.2, 2.7%, -0.1, 4.5, 4.4, 0.2
63) Cc1nc2ccccc2n1CC(=O)N/N=C\C=C\c1ccccc1
 : -6.0, -1.9%, -0.4, -11.7, -19.1, 0.2
